# MLL AF4-AF9 inh = blocks AF4 peptide binding to human AF9 | inhibition, % at 10 µM | AlphaScreen, biotin-AF4 peptide binding to FLAG-AF9 | hit rate 0.47% among 350,000;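 active = every replicate reaching a set inhibition limit, whatever the replicate mean, cut at about 25% in these data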;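 note: 0% = plate neutral control median and 100% = total signal loss; the record names both 10 and 1 µM as test concentration; the first replicate is given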
# Target sequence (P42568 whole entry, looked up): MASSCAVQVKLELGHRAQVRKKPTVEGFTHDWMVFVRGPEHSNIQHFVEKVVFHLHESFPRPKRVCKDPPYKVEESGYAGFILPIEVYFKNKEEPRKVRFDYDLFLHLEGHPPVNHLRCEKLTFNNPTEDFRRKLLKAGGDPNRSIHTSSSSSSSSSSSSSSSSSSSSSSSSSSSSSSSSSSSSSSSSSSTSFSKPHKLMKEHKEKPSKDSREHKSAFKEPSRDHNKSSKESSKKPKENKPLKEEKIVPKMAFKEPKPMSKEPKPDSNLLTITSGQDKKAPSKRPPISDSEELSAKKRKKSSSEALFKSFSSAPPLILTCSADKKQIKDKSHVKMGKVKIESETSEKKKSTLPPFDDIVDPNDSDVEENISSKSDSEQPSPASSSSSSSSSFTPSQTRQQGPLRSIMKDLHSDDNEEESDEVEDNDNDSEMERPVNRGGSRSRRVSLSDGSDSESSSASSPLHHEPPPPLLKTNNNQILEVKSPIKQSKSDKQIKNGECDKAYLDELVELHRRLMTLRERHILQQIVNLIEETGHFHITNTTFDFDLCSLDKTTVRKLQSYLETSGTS
# Ecoli rRNA inh = selective bacterial rRNA inhibition in E. coli; AID 720706; E. coli WT GFP vs humanized-ribosome RFP mutants, fluorescence, 24 h; hits give low values; DMSO median 0, no signal -100; GFP signal change (wild-type ribosome), % (concentration not given with the values); hit rate 1.6% among 350,000;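 active = significant combined selectivity score with lowered wild-type GFP, culture density cut under 30%, mutant RFP and density less affected; inactive = any of these conditions unmet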; note: one replicate is shown; some compounds called inactive have numbers as strong as hits
# Ecoli rRNA inh OD600 = further read-out of Ecoli rRNA inh, marked with its call; OD600 change, %; measured here: OD600 growth;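 optical density of the mix in the first replicate; 0 = DMSO median and -100 = no signal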
# Ecoli rRNA inh RFP = further read-out of Ecoli rRNA inh, marked with its call; RFP signal change, %; measured here: RFP humanized mutant strains;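 first replicate; 0 = DMSO median and -100 = no signal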
# * hit, by the source's call; & = joins results of further samples. Some of the compounds tested; rates above refer to the full screens.
SMILES,MLL AF4-AF9 inh,Ecoli rRNA inh,Ecoli rRNA inh OD600,Ecoli rRNA inh RFP
COCCNC(=O)C[C@H]1CC[C@@H]2[C@H](COc3ccc(NC(=O)C4CCOCC4)cc3C(=O)N2C)O1,-1.1,4.9,4.0,-0.6
C[C@@H]1CN([C@H](C)CO)C(=O)c2cc(C#CC3(O)CCCC3)cnc2O[C@@H]1CN(C)C(=O)C1CCCCC1,-4.9,3.3,4.1,1.0
C[C@H]1CN([C@@H](C)CO)C(=O)c2cccc(NS(=O)(=O)c3cccs3)c2O[C@@H]1CN(C)Cc1ccc(Cl)c(Cl)c1,6.1,-2.2,10.9,3.9
Cc1ccc(S(=O)(=O)Nc2ccc3c(c2)C(=O)N([C@@H](C)CO)C[C@H](C)[C@@H](CN(C)S(=O)(=O)c2c(C)noc2C)OCCCC[C@H](C)O3)cc1,0.4,0.8,2.7,-1.2
O=C([C@@H]1[C@@H](CO)[C@@H]2Cn3c(cccc3=O)[C@H]1N2CC1CCCC1)N1CCc2ccccc2C1,0.8,-4.4,-5.2,-0.2
C[C@@H]1CN([C@H](C)CO)C(=O)c2cc(NC(=O)C3CC3)ccc2O[C@H]1CN(C)S(=O)(=O)c1cn(C)cn1,-1.6,2.0,9.5,3.1
C[C@@H]1CN([C@@H](C)CO)C(=O)Cc2cc(NC(=O)c3ccncc3)ccc2O[C@H]1CN(C)C,-0.5,5.5,10.0,-2.7
CCNC(=O)[C@H]1[C@H](CO)[C@H]2Cn3c(cccc3=O)[C@H]2N1Cc1ccccc1Cl,-5.7,0.5,7.3,1.1
COc1ccccc1CN1[C@@H]2c3cccc(=O)n3C[C@@H]2[C@@H](CO)[C@@H]1C(=O)NCCc1ccncc1,1.0,-2.1,-0.4,1.5
CCCN1[C@@H]2c3ccc(C4=CCCCC4)c(=O)n3C[C@H]1[C@H](CO)[C@H]2C(=O)N1CCOCC1,-28.7,2.7,1.8,-2.0
COc1ccc(CN(C)C[C@H]2Oc3ccc(NS(=O)(=O)c4ccc(F)cc4)cc3CC(=O)N([C@@H](C)CO)C[C@@H]2C)cc1,3.4,-3.3,3.0,2.0
CC(C)NC(=O)N(C)C[C@H]1Oc2ncc(C#Cc3ccccc3F)cc2C(=O)N([C@H](C)CO)C[C@H]1C,1.4,5.6,2.4,-0.1
COc1ccccc1CN(C)C[C@@H]1OCc2cn(nn2)CCCC(=O)N([C@@H](C)CO)C[C@@H]1C,-9.3,0.7,4.6,-0.4
COc1ccc(CN(C)C[C@H]2OCCCC[C@H](C)Oc3ccc(NS(=O)(=O)c4cn(C)cn4)cc3C(=O)N([C@@H](C)CO)C[C@H]2C)cc1,-1.4,0.8,9.0,1.0
CCCN1C[C@@H](C)[C@@H](OC)CN(C)C(=O)c2cc(NS(=O)(=O)c3cn(C)cn3)ccc2OC[C@@H]1C,-0.8,3.0,-0.1,-1.2
O=C(C[C@H]1CC[C@H]2[C@@H](COC[C@H](O)CN2Cc2ccc(F)cc2)O1)NCc1ccccc1Cl,1.6,-4.1,-3.5,0.3
C[C@@H]1CCCCO[C@@H](CN(C)CC2CC2)[C@@H](C)CN([C@H](C)CO)C(=O)c2cc(NC(=O)CCC(F)(F)F)ccc2O1,-5.9,3.1,-4.0,0.7
C[C@H](CO)N1C[C@H](C)[C@H](CN(C)S(=O)(=O)c2cccs2)Oc2ccc(NS(=O)(=O)c3ccccc3)cc2C1=O,-0.1,-3.7,-2.4,-2.1
CN(C)CCNC(=O)c1cccc(-c2cnc3c(NC=O)cc(-c4cccc(C(F)(F)F)c4)cn23)c1,37.1*,-60.7,-82.2,-20.6
C[C@H]1CN([C@@H](C)CO)C(=O)Cc2cc(NC(=O)Nc3cccc4ccccc34)ccc2O[C@H]1CN(C)CC1CC1,2.8,-3.0,-11.3,3.6
CO[C@H](CN(C)C(=O)c1ccc2c(c1)OCO2)[C@@H](C)CN([C@H](C)CO)S(=O)(=O)c1ccc(Cl)cc1,-0.4,-3.4,-5.8,8.3
C[C@H](CO)N1C[C@H](C)[C@@H](CN(C)Cc2ccc(C(F)(F)F)cc2)OCCCC[C@H](C)Oc2ccc(NC(=O)c3ccccc3)cc2C1=O,-0.8,-1.3,-6.6,1.6
O=C(c1ccccn1)N1C[C@H]2[C@@H](c3ccccc31)[C@H](CO)N2C(=O)C1CCCC1,0.1,2.1,2.2,-3.5
O=C(C[C@@H]1CC[C@H](NC(=O)C2CC2)[C@@H](CO)O1)NCCCN1CCOCC1,-3.5,-1.3,3.6,-0.9
Cc1cc(C(=O)Nc2cccc3c2O[C@@H](CN(C)C(=O)Nc2ccc(F)cc2)[C@H](C)CN([C@H](C)CO)C3=O)n(C)n1,-1.8,6.2,12.2,-1.9

# One compound at a time, from the list above.
# Listed for `COc1ccc(CN(C)C[C@H]2Oc3ccc(NS(=O)(=O)c4ccc(F)cc4)cc3CC(=O)N([C@@H](C)CO)C[C@@H]2C)cc1` = MLL AF4-AF9 inh = 3.4; Ecoli rRNA inh = -3.3; Ecoli rRNA inh OD600 = 3.0; Ecoli rRNA inh RFP = 2.0
# Listed for `O=C(c1ccccn1)N1C[C@H]2[C@@H](c3ccccc31)[C@H](CO)N2C(=O)C1CCCC1` = MLL AF4-AF9 inh = 0.1; Ecoli rRNA inh = 2.1; Ecoli rRNA inh OD600 = 2.2; Ecoli rRNA inh RFP = -3.5
# Listed for `CCNC(=O)[C@H]1[C@H](CO)[C@H]2Cn3c(cccc3=O)[C@H]2N1Cc1ccccc1Cl` = MLL AF4-AF9 inh = -5.7; Ecoli rRNA inh = 0.5; Ecoli rRNA inh OD600 = 7.3; Ecoli rRNA inh RFP = 1.1

# Further results.
SMILES,MLL AF4-AF9 inh,Ecoli rRNA inh,Ecoli rRNA inh OD600,Ecoli rRNA inh RFP
C[C@@H]1CN([C@H](C)CO)C(=O)c2ccccc2-c2ccccc2CO[C@@H]1CN(C)C(=O)Nc1ccccc1,-2.9,13.1&1.3,4.2&13.2,3.8&-4.5
O=C(Cc1ccncc1)Nc1ccc2c(c1)[C@@H]1C[C@@H](CC(=O)NC3CCCCC3)O[C@H](CO)[C@@H]1O2,1.0,-0.1,7.5,1.4
O=C(C[C@@H]1CC[C@H]2[C@@H](COC[C@@H](O)CN2C(=O)c2ccccc2)O1)NC1Cc2ccccc2C1,-0.9,6.2,7.3,-3.2
CC(=O)N1CC[C@@H]2[C@@H](CO)N(C)c3ccc(-c4cccc(F)c4)cc3[C@@H]21,0.2,3.3,5.4,-2.1
Cc1noc(C)c1S(=O)(=O)Nc1ccc2c(c1)C(=O)N([C@H](C)CO)C[C@H](C)[C@@H](CN(C)C(=O)Nc1ccc(C(F)(F)F)cc1)OCCCC[C@@H](C)O2,-4.0,4.3,-3.5,1.3
CN(C)Cc1cn(CC[C@@H]2CC[C@@H](NC(=O)Cc3cccnc3)[C@@H](CO)O2)nn1,0.2,1.8,9.2,-1.6
COCC(=O)Nc1ccc2c(c1)[C@H]1C[C@@H](CC(=O)NCc3ccccc3)O[C@@H](CO)[C@H]1O2,1.3,2.0,4.2,-0.8
COc1ccccc1-c1cnc2c(c1)C(=O)N([C@H](C)CO)C[C@@H](C)[C@@H](CN(C)C)O2,-2.0,2.4,12.1,-0.1
CO[C@@H](CN(C)C(=O)c1ccccc1F)[C@@H](C)CN([C@@H](C)CO)S(=O)(=O)c1ccccc1,-32.7,-0.5,-5.2,-1.2
CN(C)CC(=O)N1[C@H](CO)[C@@H](c2ccccc2)C12CN(C(=O)c1cccc(F)c1)C2,-2.8,0.2,-0.7,-1.8
CNC[C@@H]1Oc2ccc(NC(=O)NC(C)C)cc2C(=O)N([C@H](C)CO)C[C@H]1C,0.2,4.8,-0.7,-1.8
CSCCC(C(=O)NC(C)(C)C)n1c(-c2ccc(C)cc2)nc2ccccc21 (configuration not stated),10.8,5.0,-0.1,-1.2
O=C(Cc1ccccn1)NCC[C@H]1CC[C@@H](NC(=O)Nc2ccc(F)cc2)[C@@H](CO)O1,0.1,2.9,2.5,-0.4
O=C(Nc1cccnc1)C1Cc2c(-c3ccco3)ccnc2O1 (configuration not stated),-6.6,-1.0,3.2,7.8
Cc1ccc(S(=O)(=O)N2CC[C@H]3[C@H](CO)Nc4ccc(-c5cccc(C(=O)N(C)C)c5)cc4[C@H]32)cc1,1.0,-8.6,-13.9,1.3
CO[C@H]1CN(C)C(=O)c2cc(NC(=O)C3CC3)ccc2OC[C@H](C)NC[C@@H]1C,-1.0,0.0,1.5,-0.6
COC(=O)c1cccc(NC(=O)c2cccc(-n3cnnn3)c2)c1,-15.8,-2.9,1.2,0.6
C[C@@H]1CN([C@@H](C)CO)C(=O)c2cc(NC(=O)Cn3cnnn3)ccc2O[C@H]1CN(C)S(=O)(=O)c1ccccc1,-1.0,-1.8,-2.1,-0.9
CS(=O)(=O)N1CC2(C1)[C@H](c1ccccc1)[C@H](CO)N2Cc1ccccn1,-1.9,2.0,7.3,-3.9
Cc1noc(C)c1NC(=O)N(C)C[C@@H]1OCCCC[C@H](C)Oc2ccc(NC(=O)C3CCCCC3)cc2C(=O)N([C@H](C)CO)C[C@H]1C,-1.0,-1.7,8.1,1.5
CC(C)CC#Cc1ccc2c(c1)O[C@H](CN(C)C(=O)c1cccc(F)c1)[C@H](C)CN([C@@H](C)CO)S2(=O)=O,1.4,3.8,-6.2,1.4
O=C(C[C@H]1C=C[C@@H](NC(=O)Nc2ccc(C(F)(F)F)cc2)[C@H](CO)O1)NCc1cccc(F)c1,-0.7,-3.0,3.3,-1.7
COC(=O)Cc1nnn2c1CC(OC)c1cc(Br)ccc1-2 (configuration not stated),-1.9,5.5,6.3,1.0
CC1(C(=O)NS(=O)(=O)c2cccc(Cl)c2)CCN1C(=O)COc1ccc(Cl)cc1 (configuration not stated),-0.3,0.0,0.4,-10.6
CN(C)CC(=O)N1CC2(C1)[C@@H](c1ccccc1)[C@@H](CO)N2C(=O)C1CCC1,-1.7,4.3,5.7,-4.5
# Next section:
SMILES,MLL AF4-AF9 inh,Ecoli rRNA inh,Ecoli rRNA inh OD600,Ecoli rRNA inh RFP
C/C=C/c1cnc2c(c1)C(=O)N([C@@H](C)CO)C[C@H](C)[C@@H](CN(C)S(=O)(=O)c1ccc(OC)cc1)O2,-2.2,-1.4,5.0,-0.1
CNC[C@@H]1Oc2ccc(NS(=O)(=O)c3ccc(F)cc3)cc2C(=O)N([C@@H](C)CO)C[C@@H]1C,2.0,4.5,-3.1,4.0
CN(C)C(=O)c1ccc(-c2ccc([C@H]3[C@@H](C#N)N(C(=O)C4CCC4)[C@@H]3CO)cc2)cc1,-1.5,2.7,-5.0,0.9
COc1ccc(-c2ccc(C(=O)Nc3cccc(NS(C)(=O)=O)c3)c3occc23)c(C)c1,-2.5,-10.2,-18.1,-3.0
COc1ccc2c3c([nH]c2c1)[C@H](CO)N(C(=O)C1CCCC1)CC31CN(C(=O)NC(C)C)C1,-1.9,-0.9,5.1,-3.2
COc1cccc(S(=O)(=O)N(C)C[C@@H]2Oc3cc(C#CCN(C)C)ccc3S(=O)(=O)N([C@H](C)CO)C[C@H]2C)c1,4.1,-3.9,-14.7,-0.2
N#C[C@H]1[C@@H](c2ccccc2-c2ccc(F)cc2)[C@@H](CO)N1C(=O)NC1CCCCC1,0.2,5.3,-13.3,2.5
CCN1[C@@H]2c3ccc(C4=CCCC4)c(=O)n3C[C@@H]2[C@@H](CO)[C@@H]1C(=O)N(C)C,-0.7,2.7,4.8,-0.4
C[C@H](CO)N1C[C@H](C)[C@H](CN(C)C(=O)c2ccc(F)cc2)Oc2ncc(/C=C/c3ccccc3)cc2C1=O,7.9,-11.1,-13.1,9.4
CO[C@H]1CN(C)C(=O)c2cc(NC(=O)C3CCCC3)ccc2OC[C@H](C)NC[C@@H]1C,-2.0,3.8,1.7,-0.9
COc1ccc(-c2ccc([C@@H]3[C@H](CO)N4C(=O)CN(C(=O)c5cccnc5)C[C@@H]34)cc2)cc1,1.7,-0.1,0.1,0.1
COc1ccc2c3c(n(C)c2c1)[C@@H](CO)N(C(=O)c1cccnc1)CC31CN(S(C)(=O)=O)C1,-0.8,1.0,10.9,-4.9
COc1cccc(S(=O)(=O)N[C@@H]2CC[C@@H](CC(=O)NCc3ccccc3)O[C@H]2CO)c1,-0.5,2.3,10.2,0.9
OC[C@@H]1CN(Cc2ccc(-c3ccccc3)cc2)C[C@H](n2cnc3c(N4CCCC4)ncnc32)O1,0.5,4.7,4.3,3.4
O=C(NC1CCCC1)N1CCCCN2[C@H](CO)[C@@H](c3ccc(-c4ccccc4)cc3)[C@H]2C1,3.1,-6.3,-35.5,14.1
COc1ccc2c3c(n(C)c2c1)[C@@H](CO)N(C(=O)C1CCCCC1)CC31CCN(C(=O)c2ccncc2)CC1,2.6,1.7,9.3,1.3
C[C@H](CO)N1C[C@H](C)[C@H](CN(C)S(=O)(=O)c2cn(C)cn2)Oc2ccc(NC(=O)NC3CCCCC3)cc2C1=O,0.3,-0.7,-0.1,0.1

# In another format: 2 of the compounds above.
> COc1ccc2c3c(n(C)c2c1)[C@@H](CO)N(C(=O)C1CCCCC1)CC31CCN(C(=O)c2ccncc2)CC1
  MLL AF4-AF9 inh: 2.6
  Ecoli rRNA inh: 1.7
  Ecoli rRNA inh OD600: 9.3
  Ecoli rRNA inh RFP: 1.3

> C[C@@H]1CN([C@@H](C)CO)C(=O)Cc2cc(NC(=O)c3ccncc3)ccc2O[C@H]1CN(C)C
  MLL AF4-AF9 inh: -0.5
  Ecoli rRNA inh: 5.5
  Ecoli rRNA inh OD600: 10.0
  Ecoli rRNA inh RFP: -2.7
